RanGTP-Imp inh – inhibitors of RanGTP-importin-beta interaction, primary screen, biochemical, FRET, CFP-Ran, YFP-importin-beta, homogeneous; 1.1% of 300,000 active; inhibition, % (concentration not given with the values); cell-free CFP-Ran/YFP-importin-beta FRET ratio; Ran GTPase (GTP-bound) - importin-beta complex;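 active = most replicates above 15%; inconclusive = exactly half above 15%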;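 note: 0% = DMSO wells and 100% = Ran loaded with GDP instead of GTP; wells of about 40 µL received 100 nL stock; the first replicate is given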
Calb FLC – C. albicans growth inhibition with fluconazole, primary screen, CaCi-2 strain, Alamar Blue fluorescence | C. albicans CaCi-2 (fluconazole-resistant clinical isolate) + fluconazole, 48 h | growth inhibition, % (concentration not given with the values) | 0.57% of 300,000 active | AID 1979, 2009;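 active = most replicates above 75%; inconclusive = exactly half above 75%; inactive = most below 75%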;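 note: all wells also contain fluconazole at 8 µg/ml as a sub-toxic cotreatment; 0% = median of DMSO wells and 100% = median of geldanamycin control wells; wells of about 8 µL received 7.5 nL stock; the first replicate is given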
LANA-H2A inh – blockers of LANA interaction with H2A/H2B – biochemical, FP readout, HTS, primary screen. AID 2629, 2010. Protein LANA1 (Human herpesvirus 8 type P (isolate GK18)), Q9QR71. 0.6% of 320,000 active. inhibition, % (test concentration not listed). cell-free LANA-H2A/H2B peptide, fluorescence polarization; in the data active = inhibition mostly above about 10%, no sharp cut-off; inactive = mostly below about 6.7%;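 note: stock transfer was 7.5 nL into about 10 µL; 0% = median of vehicle wells and 100% = median of positive control wells; one replicate is shown; the record names a cut of 25% in any replicate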
Target sequence (Q9QR71 whole entry, looked up): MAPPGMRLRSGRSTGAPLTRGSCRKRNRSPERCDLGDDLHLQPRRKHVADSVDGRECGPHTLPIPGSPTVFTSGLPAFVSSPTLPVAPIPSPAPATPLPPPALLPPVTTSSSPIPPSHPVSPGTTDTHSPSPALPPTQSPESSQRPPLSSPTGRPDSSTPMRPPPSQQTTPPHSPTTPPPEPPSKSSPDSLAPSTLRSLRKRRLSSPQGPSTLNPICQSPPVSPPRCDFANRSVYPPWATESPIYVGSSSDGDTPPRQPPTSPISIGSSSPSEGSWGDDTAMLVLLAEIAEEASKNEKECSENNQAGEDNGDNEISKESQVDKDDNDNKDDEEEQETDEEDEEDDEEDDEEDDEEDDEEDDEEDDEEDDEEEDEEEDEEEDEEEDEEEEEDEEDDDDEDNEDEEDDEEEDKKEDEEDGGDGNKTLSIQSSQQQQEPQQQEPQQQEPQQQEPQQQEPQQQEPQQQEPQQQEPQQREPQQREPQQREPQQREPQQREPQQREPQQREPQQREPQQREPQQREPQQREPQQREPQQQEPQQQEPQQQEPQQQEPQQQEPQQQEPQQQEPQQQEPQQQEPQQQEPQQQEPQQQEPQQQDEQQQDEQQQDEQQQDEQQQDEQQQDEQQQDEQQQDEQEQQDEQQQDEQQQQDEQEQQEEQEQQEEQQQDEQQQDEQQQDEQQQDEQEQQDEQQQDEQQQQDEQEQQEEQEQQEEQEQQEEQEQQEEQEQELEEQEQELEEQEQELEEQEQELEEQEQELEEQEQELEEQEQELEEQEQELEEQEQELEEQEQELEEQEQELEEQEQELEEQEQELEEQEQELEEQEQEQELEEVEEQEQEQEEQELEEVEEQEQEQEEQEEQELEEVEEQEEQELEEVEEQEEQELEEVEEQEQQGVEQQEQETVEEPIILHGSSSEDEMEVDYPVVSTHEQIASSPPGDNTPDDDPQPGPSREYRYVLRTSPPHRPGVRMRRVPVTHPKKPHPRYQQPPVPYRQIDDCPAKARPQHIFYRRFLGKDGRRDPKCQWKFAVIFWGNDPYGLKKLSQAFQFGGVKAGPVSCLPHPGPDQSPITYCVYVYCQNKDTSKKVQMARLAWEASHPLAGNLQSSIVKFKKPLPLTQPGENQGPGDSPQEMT
HNF4A DNA FP – change in binding of human HNF4A to DNA, primary screen, biochemical, fluorescence polarization, FITC-DNA | Hepatocyte nuclear factor 4-alpha (Homo sapiens), P41235 | 1 h | activity change, % at 10 µM | 0.3% of 360,000 active; in the data active = activity change above about 30%, passing the limit was not always enough;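 note: controls were the assay level and a saturating level of protein; the project sought stronger binding though the title names inhibitors; some compounds called inactive have numbers as strong as hits; positive values seem to mean higher polarization but the record does not say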
Vif A3G – inhibitors of Vif binding to APOBEC3G peptide, primary screen, biochemical, TR-FRET, GST-Vif 1-94, biotin-A3G peptide, dose response retest (AID 1117319). Virion infectivity factor (Human immunodeficiency virus type 1 group M subtype B (isolate …. TR-FRET GST-Vif / biotin-A3G peptide binding; higher % means a stronger effect; test concentration not given here; strong numbers were not always called active. inhibition, %; hits with a dose series show IC50 in µM. 0.57% of 260,000 active;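 active = above the screen mean plus three standard deviations and confirmed in dose response; inconclusive = results disagree or hit not tested in dose response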;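 note: Vif residues 1-94 fused to GST binding biotinylated APOBEC3G peptide 110-148; 0% = full assay without inhibitor and 100% = GST in place of GST-Vif; retest series ran down from 100 µM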
B2AR ag – beta2AR agonists driving receptor internalization, primary screen, cell-based, FAP fluorogen, flow cytometry | Am2.2-beta2AR cells; reference of the scale not given here | 0.43% of 340,000 active | response, % (concentration not given with the values);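 active = response above a set limit, near 3 SD of response in nonfluorescent compounds, cut at about 42% in these data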;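 note: stock transfer was 100 nL into about 11 µL; a reference agonist was the positive control; negative values mostly stem from fluorescent compounds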
ALR H2O2 inh – inhibitors of human ALR sulfhydryl oxidase, primary screen, biochemical, H2O2 detection, HRP-luminol luminescence, single point | FAD-linked sulfhydryl oxidase ALR (Homo sapiens), P55789 | purified ALR, DTT oxidation | inhibition, % (test concentration not listed) | 3.8% of 290,000 active;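 active = mean and each replicate at 75% or more; inconclusive = only one of the two met; inactive = neither met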;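 note: stock transfer was 7.5 nL into about 7.5 µL; 0% = neutral wells and 100% = wells with inactivated enzyme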
Active calls of the source: *; i = inactive; u = inconclusive; x = not tested or not shown; + = active, no number; & = joins results of further samples.

SMILES	RanGTP-Imp inh	Calb FLC	LANA-H2A inh	HNF4A DNA FP	Vif A3G	B2AR ag	ALR H2O2 inh
COc1ccc(-c2noc(CCCCC(=O)N3CCN(c4cc(C)ccc4C)CC3)n2)cc1	x	x	x	-0.3	-7%	9	x
COC(=O)C1=C(N)OC2=C(C(=O)CCC2)C1c1ccccc1OC (stereo not given)	-2.1	1	-1.2	0.6	-1%	2	-7
CCOC(=O)c1ccccc1NC(=O)CSc1cccc[n+]1[O-]	1.7	-1	0.5	-2.3	-6%	0	-14
C=CCOC(=O)C1=C(C)NC(=O)NC1c1ccc(OC(=O)c2ccco2)c(OC)c1 (stereo not given)	3.9	5	2.1	1.9	17%	1	-4
COc1ccc(OCc2nnc(NC(=O)Nc3ccccc3F)s2)cc1	-1.6	-20	-2.0	-1.9	-6%	5	-3
O=C(CN1C(=O)NC2(CCc3ccccc32)C1=O)c1ccc2c(c1)OCCO2 (stereo not given)	0.7	-7	5.1	-0.2	24%	12	-4
C=C(C)CSc1nnc2[nH]c(=O)cc(N)n12	-5.9	-2	-0.3	-4.3	-1%	-5	0
COc1cccc(OCc2cc(C(=O)N(C)CCC3CCCCO3)no2)c1 (stereo not given)	1.4	-5	-2.0	1.6	x	-4	9
COc1cc(NS(C)(=O)=O)c(OC)cc1NC(=O)c1cccc(F)c1	9.1	0	3.0	1.4	25%	-4	-3
N/C(=N/OC(=O)c1cccc([N+](=O)[O-])c1)c1cccc([N+](=O)[O-])c1	-2.8	-4	-1.7	2.3	3%	-7	-3

The final 2 entries of the section above come first, to join the parts.
SMILES	RanGTP-Imp inh	Calb FLC	LANA-H2A inh	HNF4A DNA FP	Vif A3G	B2AR ag	ALR H2O2 inh
COc1cc(NS(C)(=O)=O)c(OC)cc1NC(=O)c1cccc(F)c1	9.1	0	3.0	1.4	25%	-4	-3
N/C(=N/OC(=O)c1cccc([N+](=O)[O-])c1)c1cccc([N+](=O)[O-])c1	-2.8	-4	-1.7	2.3	3%	-7	-3
COC(=O)CSc1nc(NCc2ccccc2)nc(N(C)C)n1	-0.4	1	x	1.6	-5%	8	2
COc1ccc(OC)c(Nc2nc(NCCC(C)C)nc(N)c2[N+](=O)[O-])c1	-3.4	-5	1.6	-0.4	1%	9	x
O=C(CN1CCc2ccccc2C1)NC1CCCC1	2.1	1	0.5	1.4	-6%	-7	-12
Cc1cc(Nc2ccc(Cl)cc2)n(-c2cccc(Cl)c2)n1	1.2	-40	4.5	4.8	-1%	3	51
COc1ccc(C(=O)Nc2ccc(S(=O)(=O)N3CCOCC3)cc2)cc1	-0.6	-9	0.6	2.2	x	2	-9
O=S(=O)(Nc1ccc2c(c1)OCCO2)c1cccc2nsnc12	2.1	6	-4.7	-0.8	13%	-10	x
Cc1cc(C)nc(NC(=O)CCCC(=O)O)c1	3.4	2	4.4	0.9	u	10	-10
COc1ccc(NC(=O)C2CCN(S(=O)(=O)c3cccs3)CC2)cc1OC	x	x	-5.4	1.8	-13%	-7	x
CCN(CC)C(=O)[C@H]1CC(CC(=O)NCCC2=CCCCC2)C(=O)N2CCc3c([nH]c4ccccc34)[C@]12C (stereo not given in full)	x	x	i	4.9	1%	-3	-3
Cc1cc(C)nc(NC(=O)c2ccc(C)o2)n1	3.0	-2	-3.8	-1.4	4%	-11	-2
CC(C)C(=O)N(c1ccc2oc(=O)sc2c1)S(=O)(=O)c1ccccc1	2.2	32	3.4	-1.8	u	-20	96*
O=c1c2c3c(sc2nc2n1CCCC2)CCCCC3	3.1	-1	-6.1	-2.8	0%	-24	66
C=CCn1ccc(=NC=C(C#N)C#N)c2ccccc21	5.0	12	-10	13	2%	7	-1
O=C(NCc1ccc(Cl)cc1)c1cc(=O)[nH]c2ccc(S(=O)(=O)N3CCOCC3)cc12	-1.4	9	5.0	-5.3	0%	-6	x
S=C(NCc1cccs1)Nc1ccccc1	1.4	7	0.3	0.9	-1%	-2	x
CCOc1ccc(/C=C/C(=O)N(CC)CC(=O)Nc2ccc3c(c2)OCCO3)cc1OC	1.3	15	-3.2	5.1	x	-2	1
Cc1ccc(-n2c(C)cc(/C([O-])=C(/C(=S)Nc3ccc(F)c(Cl)c3)[n+]3ccccc3)c2C)cc1	-1.4	110*	0.1	-1.2	27%	7	-16
O=C(NC1CCCCC1)NC1CCN(CC(=O)N2CCOCC2)CC1	u	-1	-0.1	0.4	1%	3	x
CC(=O)c1ccc(NC(=O)CNC2CCCCC2)cc1	2.5	18	-0.6	4.9	-2%	-4	6
COc1ccc(OC)c(CN2CCC(C(=O)N(C)CCc3ccc(OC)c(OC)c3)CC2)c1	5.1	9	-1.6	0.1	-9%	-3	0
Cc1ccc(/C=C/C2=NN(Cc3ccccc3Cl)C(=O)CC2)cc1	1.2	5	x	1.1	4%	4	x
CC(C)N1CCC(N2CCN(C/C=C/c3ccc(F)cc3)CC2CCO)CC1 (stereo not given)	-0.3	-13	0.7	0.3	14%	2	-1
CSCCC(NC(=O)c1ccccc1)C(=O)N1CCN(C(=O)c2ccccc2)CC1 (stereo not given)	x	x	5.2	0.1	x	0	x
CNC(=O)NC(=O)C(C)OC(=O)c1cc2c(s1)CCCCC2 (stereo not given)	1.9	33	-26	0.7	x	-7	x
O=C(Nc1cccc(Cl)c1N1CCOCC1)c1ccco1	-1.3	15	0.4	-1.1	x	1	14
NC(=O)C1=C[C@@H](c2ccc(C(F)(F)F)cc2)C[C@@H](OCc2ccc(CO)cc2)O1	-3.5	11	3.2	2.1	-6%	-3	52
CCOC(=O)N1CCN(C(=O)CN(Cc2ccccc2)S(C)(=O)=O)CC1	3.9	-14	-0.1	0.1	2%	6	-6
CCCn1c(/N=C/c2ccccc2O)nc2ccccc21	3.0	u	-3.7	2.2	-1%	0	-6
O=C(COc1ccccc1)Nc1c2c(nn1-c1ccc(F)cc1)CS(=O)(=O)C2	1.4	-1	-1.5	-0.6	x	7	0
COc1cc(/C=C/C(=O)N(C)CC(=O)Nc2ccccc2SC)cc(OC)c1OC	x	x	-1.8	0.3	x	4	x
COCC1CCN(C(=O)C2CCN(c3nc(-c4ccccc4)nc4c3CCC4)CC2)C1 (stereo not given)	4.8	11	1.3	-0.9	-9%	-18	-1
CCC(C)(C)NC(=O)CN(CC1CCCO1)C(=O)CCC(=O)Nc1nccs1 (stereo not given)	0.6	-5	-6.2	-3.1	5%	0	-17
CC(C)c1ccc(C2c3[nH]c4ccccc4c3C[C@H]3C(=O)N(c4ccccc4C(=O)N4CCC[C@H]4C(=O)O)C(=O)N23)cc1 (stereo not given in full)	u	5	-3.8	-2.7	x	6	98*
COc1ccccc1OCC(=O)Nc1cc(Cl)ccc1N1CCCCC1	x	x	1.7	-5.0	2%	-4	4
CC(C)OP(=O)(c1ccc(N(C)C)cc1)C(O)c1ccccc1F (stereo not given)	1.6	u	3.9	1.8	-2%	8	8
CN1CCN(S(=O)(=O)c2ccc3[nH]c(=O)oc3c2)CC1	-3.0	-9	0.9	-0.6	7%	-5	1
CCC(C)NC(=O)CCS(=O)(=O)c1ccc2c(c1)n(C)c(=O)c(=O)n2C (stereo not given)	-1.4	-4	-1.9	-1.4	1%	-3	46
COc1ccccc1C(=O)NCCC(=O)NCCc1ccccc1	3.4	-1	1.1	0.3	x	-5	-1
Cc1ccc(Nc2nnc(SCC(=O)c3c(N)n(C4CC4)c(=O)[nH]c3=O)s2)cc1C	x	x	+	1.5	2%	0	-8
Cc1cccc(N2C(=O)CS/C2=N\NC(=O)c2cccnc2)c1C	u	6	6.4	0.8	25%	0	-4
COCCNC(=O)C(OC(=O)c1cc2oc(C)cc2n1C)C(C)C (stereo not given)	2.3	u	-2.8	7.6	9%	0	7
CC12CCC(C(=O)N3CCCc4ccccc43)(OC1=O)C2(C)C (stereo not given)	6.6	0	-1.4	2.9	-4%	-5	-3
COC(=O)c1c(C)oc(C)c1S(=O)(=O)NCc1ccc(Cl)cc1	3.9	-1	-1.6	2.1	5%	0	0
N#Cc1ccccc1S(=O)(=O)N1CCN(CC(=O)Nc2ccnn2C2CCCC2)CC1	x	x	x	0.2	-7%	-4	x
Cn1c(=O)c2c(nc(NCc3ccc4c(c3)OCO4)n2Cc2ccccc2F)n(C)c1=O	-1.4	12	0.3	-3.1	1%&-6%	-6	7
CCn1ccnc1CN(C)Cc1cn(-c2ccccc2)nc1-c1ccc(OC)cc1F	u	-11	-2.1	-1.9	-7%	-1	-44
CN(Cc1ccccc1)C(=O)c1ccc(NC(=O)Cc2ccc(NC(=O)C3CCN(S(=O)(=O)c4cccc([N+](=O)[O-])c4)CC3)cc2)cc1	x	x	x	1.2	-6%	1	x
C/C=C/C=C/C(=O)O	x	x	0.1	3.5	x	1	-1
Cc1nc(SCC(=O)Nn2c(-c3ccccc3)nc3ccccc3c2=O)n[nH]1	-1.0	-1	3.5	1.9	-1%	0	-5
CC(=O)Nc1ccc(S(=O)(=O)Oc2cccc(/C=C3\SC(N)=NC3=O)c2)cc1	4.0	-4	2.4	-1.6	10%	3	-3

By substructure: the entries above with fluorine.
SMILES	RanGTP-Imp inh	Calb FLC	LANA-H2A inh	HNF4A DNA FP	Vif A3G	B2AR ag	ALR H2O2 inh
COc1ccc(OCc2nnc(NC(=O)Nc3ccccc3F)s2)cc1	-1.6	-20	-2.0	-1.9	-6%	5	-3
COc1cc(NS(C)(=O)=O)c(OC)cc1NC(=O)c1cccc(F)c1	9.1	0	3.0	1.4	25%	-4	-3
Cc1ccc(-n2c(C)cc(/C([O-])=C(/C(=S)Nc3ccc(F)c(Cl)c3)[n+]3ccccc3)c2C)cc1	-1.4	110*	0.1	-1.2	27%	7	-16
CC(C)N1CCC(N2CCN(C/C=C/c3ccc(F)cc3)CC2CCO)CC1 (stereo not given)	-0.3	-13	0.7	0.3	14%	2	-1
NC(=O)C1=C[C@@H](c2ccc(C(F)(F)F)cc2)C[C@@H](OCc2ccc(CO)cc2)O1	-3.5	11	3.2	2.1	-6%	-3	52
O=C(COc1ccccc1)Nc1c2c(nn1-c1ccc(F)cc1)CS(=O)(=O)C2	1.4	-1	-1.5	-0.6	x	7	0
CC(C)OP(=O)(c1ccc(N(C)C)cc1)C(O)c1ccccc1F (stereo not given)	1.6	u	3.9	1.8	-2%	8	8
Cn1c(=O)c2c(nc(NCc3ccc4c(c3)OCO4)n2Cc2ccccc2F)n(C)c1=O	-1.4	12	0.3	-3.1	1%&-6%	-6	7
CCn1ccnc1CN(C)Cc1cn(-c2ccccc2)nc1-c1ccc(OC)cc1F	u	-11	-2.1	-1.9	-7%	-1	-44

Compound activity from PubChem BioAssay.
